V. cholerae QS = Vibrio cholerae quorum sensing activators, luminescence (AID 686977); V. cholerae quorum sensing reporter, luminescence, 6 h; higher luminescence means a stronger effect; most inactives read 0; luminescence at 50 µM unless noted; hits with a dose series show EC50 in µM; 9,400 tested, under 10 active;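 active = light above mean plus 3 SD and confirmed in a dose series; inconclusive = above that limit without a clear retest; inactive = below it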;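 note: raw light counts without normalisation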
Starred values were filed as active, the others as inactive; ? = inconclusive; [ ] = another dose, or the depositor's remark.

canonical_smiles | V. cholerae QS
COc1ccc(-n2c(C)nc3c(cnn3-c3ccc(C)c(C)c3)c2=O)cc1 | 40
CCCCN(Cc1ccccc1)C(=O)C1CCCN(S(=O)(=O)c2cnc[nH]2)C1 (stereo not drawn) | 0
COc1cc(S(=O)(=O)NC2CCCCC2)ccc1F | 40
COc1cccc(-c2nnc(NC(=O)C(C)C)o2)c1 | 0
Cc1ccc2c(c1)NC(=O)C(CC(=O)NCCCN1CCCCC1)O2 (stereo not drawn) | 0
O=C(CSc1nc2ccccc2o1)N1c2ccccc2Sc2ccc(Cl)cc21 | 0
CN(C)c1ccc(-c2nnn(Cc3ccccc3Br)n2)cc1 | 120
COc1ccc(C2C(=O)c3ccccc3C2=O)c(OC)c1 | 40
Cc1csc(NC(=O)c2c(O)c3c(n(CC(C)C)c2=O)CCCC3)n1 | 0
COC(=O)c1c(C)[nH]c(C(=O)CSc2ccc(Cl)cc2)c1C | 0
O=C(NCc1cn2ccsc2n1)c1cccs1 | 0
CCCCOCCCNc1ncnc2c1[nH]c1ccccc12 | 0
CCOC(=O)c1ccc(S(=O)(=O)N2CCN(S(=O)(=O)CC)CC2)cc1 | 0
COc1ccc(C)cc1NC(=O)C(CCS(C)(=O)=O)NC(C)=O (stereo not drawn) | 280
CCn1c(C(C)NC(=O)c2cccs2)nc2ccccc21 (stereo not drawn) | 0
O=C(CSCCNS(=O)(=O)c1ccccc1)Nc1ccccc1 | 0
CCOC(=O)C1CCN(/C=C2/C(=O)NC(=O)N(c3ccc(OCC)cc3)C2=O)CC1 | 40
Cc1ccc(S(=O)(=O)N2CCOCC2)cc1C(=O)NCc1ccc2c(c1)OCO2 | 40
COc1cc(-c2noc(CCCC(=O)NC3CCCCC3)n2)cc(OC)c1OC | 0
Cc1cccc(-n2ncc3c(NCc4ccccc4)ncnc32)c1 | 0
CC(=O)OCC(=O)[C@H]1CC[C@H]2[C@@H]3CC[C@H]4C[C@H](O)CC[C@]4(C)[C@H]3C(=O)C[C@]12C | 40[10 µg/mL]
O=C(NCCN1CCOCC1)c1ccc(F)cc1 | 0
COc1cc(S(=O)(=O)N2CCN(c3ccc(F)cc3)CC2)ccc1Cl | 40
COc1cccc2cc(C(=O)N3CCN(c4ccccn4)CC3)c(=O)oc12 | 0
COc1ccc(CC(=O)NCc2nnc(SCC(=O)Nc3nccs3)n2-c2ccccc2)cc1 | 0
O=C(CN(Cc1cccs1)C(=O)CCC(=O)Nc1nccs1)NCc1ccccc1 | 40
CC(C)NC(=O)CSc1nncn1-c1ccccc1 | 0
CN(C)CCCN1C(=O)c2oc3ccc(F)cc3c(=O)c2C1c1cccnc1 (stereo not drawn) | 0
O=S(=O)(NCCSc1nnc(-c2ccco2)n1-c1ccccc1)c1ccccc1 | 0
O=C(CSc1cccc2cccc(Cl)c12)OCC(=O)N1CCN(C(=O)c2ccco2)CC1 | 0
O=c1[nH]c2ccc(Cl)cc2c(-c2ccccc2)c1N1CCN(c2ccccn2)CC1 | 0
COC(=O)COc1ccc(=O)n(-c2ccccc2)n1 | 0
Cc1ccc(-c2nn(-c3ccccc3)cc2C2SCC(=O)N2Cc2ccccc2)o1 (stereo not drawn) | 0
COc1ccccc1OCc1nc2ccccc2s1 | 0
COc1ccc2cc([C@@H](C)C(=O)O)ccc2c1 | 40[10 µg/mL]
CSc1oc(-c2ccc(F)cc2)nc1S(=O)(=O)c1ccc(F)cc1 | 40
CCCOc1cc(N)ccc1C(=O)OCCN(CC)CC | 0[10 µg/mL]
CCC1(C)CC(=O)NC(=O)C1 | 40[10 µg/mL]
O=[N+]([O-])c1ccccc1/C=N/N1CCN(c2ccc(Cl)cc2)CC1 | 40
O=C(O)CCn1c2c(c3ccccc31)CCCC2 | ?
CCCCCCCC1CC(CSC(=N)N)OC1=O (stereo not drawn) | 0
CC(=O)CC(C)=NCCN=C(C)CC(C)=O | 40
CC(C)CNc1oc(-c2ccc(F)cc2)nc1C#N | 0
COc1ccc(S(=O)(=O)Cc2ccc(C(=O)N3CCN(c4ccc(Cl)cc4)CC3)o2)cc1 | 0
CCn1c2ccccc2c2cc(NC(=O)CSc3nnc(C4CC4)n3Cc3ccco3)ccc21 | 0
CC(C)NC(=O)CSc1nc(Cc2cccs2)nc2ccccc12 | 0
COc1ccc(N2CCN(CCCNC(=O)Nc3ccccc3)CC2)cc1 | 40
Cc1cc(C)c(NC(=O)CSc2nc3c(c(=O)n2C)SC(C)C3)c(C)c1 (stereo not drawn) | 0

As entered above.
In V. cholerae QS, `COc1cccc(-c2nnc(NC(=O)C(C)C)o2)c1` is entered as 0
In V. cholerae QS, `O=S(=O)(NCCSc1nnc(-c2ccco2)n1-c1ccccc1)c1ccccc1` is entered as 0

(listing goes on)
canonical_smiles | V. cholerae QS
O=C(c1ccccc1F)N1CCN=C1SCc1cccnc1 | 520
CCc1nn2c(=O)cc(CSc3nc(C)cc(=O)[nH]3)nc2s1 | 40
CC(C)NS(=O)(=O)c1ccc(OCC(=O)N2CCN(Cc3ccc4c(c3)OCO4)CC2)c(Cl)c1 | 0
O=C(NCc1cccs1)C1CCCCC1 | 0
Cc1cc(SCC(=O)NC(=O)NCc2ccco2)nc2ccccc12 | 40
Cc1cc(NC(=O)CSc2cn(CCNC(=O)c3ccc(Cl)cc3)c3ccccc23)no1 | 40
COc1cccc(C2CC(c3ccc(C(C)C)cc3)n3nc(N)nc3N2)c1 (stereo not drawn) | 0
CC(O)(P(=O)(O)O)P(=O)(O)O | 0[10 µg/mL]
CCCCn1c(CNC(=O)C23CC4CC(CC(C4)C2)C3)nnc1SCC(=O)Nc1nnc(C)s1 | 40
CCOC(=O)Cc1nnc(NC(=O)C(CC)Sc2nc(C)cc(C)n2)s1 (stereo not drawn) | 40
CCOc1ccc(CC(=O)Nc2c(C(N)=O)oc3ccc(Br)cc23)cc1OCC | 0
CCC(C(=O)NCc1ccc(F)cc1)N(Cc1ccco1)C(=O)c1snc(C(N)=O)c1N (stereo not drawn) | 0

5 records picked at random from the list so far:
canonical_smiles | V. cholerae QS
CCOc1ccc(CC(=O)Nc2c(C(N)=O)oc3ccc(Br)cc23)cc1OCC | 0
CCc1nn2c(=O)cc(CSc3nc(C)cc(=O)[nH]3)nc2s1 | 40
O=C(c1ccccc1F)N1CCN=C1SCc1cccnc1 | 520
CCCCn1c(CNC(=O)C23CC4CC(CC(C4)C2)C3)nnc1SCC(=O)Nc1nnc(C)s1 | 40
O=C(NCc1cccs1)C1CCCCC1 | 0

(more compounds)
canonical_smiles | V. cholerae QS
CCn1c(-c2ccc(N)cc2)nc2ccccc21 | 0
CS(=O)(=O)c1ccccc1-c1nc(-c2ccc(C(F)(F)F)cc2)no1 | 0
Cc1cc(C)c(NC(=O)CSc2nnc(SCC(=O)Nc3c(C)cc(C)cc3C)n2N)c(C)c1 | 0
O=C(CCCN1CCC(O)(c2ccc(Br)cc2)CC1)c1ccc(F)cc1 | 40[10 µg/mL]
CCOC(=O)C1CCN(S(=O)(=O)c2ccc3c4c(cccc24)C(=O)N3)CC1 | 0
Cc1sc(/N=C/c2ccccc2O)c(C#N)c1C | 40
Cn1c(=O)c2c(SCC(=O)NCc3ccco3)nc(CC(C)(C)C)nc2n(C)c1=O | 40
Cc1ccc2c(CC(=O)NCc3ccco3)coc2c1C | 0
Cc1ccc(Nc2nc(CSc3nnc(-c4cccs4)o3)cs2)cc1 | 0
Cc1cc2cc(CNC(=O)c3ccc(S(=O)(=O)N(C)C)cc3)ccc2n1C | 0
CCn1c(COc2ccccc2)nnc1SCC(=O)Nc1cc(C)ccc1OC | 0
c1ccc2c(c1)nc(NCC1CCCO1)c1nnnn12 (stereo not drawn) | 0

The closing six compounds of the section above open the next one.
compound,V. cholerae QS
Cn1c(=O)c2c(SCC(=O)NCc3ccco3)nc(CC(C)(C)C)nc2n(C)c1=O,40
Cc1ccc2c(CC(=O)NCc3ccco3)coc2c1C,0
Cc1ccc(Nc2nc(CSc3nnc(-c4cccs4)o3)cs2)cc1,0
Cc1cc2cc(CNC(=O)c3ccc(S(=O)(=O)N(C)C)cc3)ccc2n1C,0
CCn1c(COc2ccccc2)nnc1SCC(=O)Nc1cc(C)ccc1OC,0
c1ccc2c(c1)nc(NCC1CCCO1)c1nnnn12 (stereo not drawn),0
COc1ccc(C(=O)CSc2nnc(CNc3ccc(C)cc3C)o2)cc1,40
COc1ccc(-c2nnc(SCC(=O)NCc3ccco3)n2C)cc1,0
CC(CNCc1ccc2c(c1)OCO2)NCc1ccc2c(c1)OCO2 (stereo not drawn),0
COc1ccc(OC)c2sc(NC(=O)C(C)C)nc12,40
O=C(CSc1nnc(-c2ccccc2)o1)N1CCN(c2ccccc2)CC1,40
Cc1nc2sc(C(c3ccc(C(C)C)cc3)N3CCN(CCO)CC3)c(O)n2n1 (stereo not drawn),0
N=P(N1CCOCC1)(N1CCOCC1)C12CC3CC(CC(C3)C1)C2,0
CCOCCn1c(SCc2cccc(C)c2)nc2c1c(=O)[nH]c(=O)n2C,?
CCOC(=O)C1=C(C)NC(=O)NC1c1ccc(C)o1 (stereo not drawn),0
O=C(NCc1ccco1)C1CCN(c2nc3ccccc3n2Cc2ccc(F)cc2)CC1,0
O=C(O)C1C2CCC(O2)C1C(=O)Nc1cnn(Cc2ccccc2)c1 (stereo not drawn),0
CC(c1ccc(F)cc1)n1cc(C(=O)NCc2ccc3c(c2)OCO3)nn1 (stereo not drawn),40
O=C(NCS(=O)(=O)c1ccccc1)c1ccccc1,0
O=C(Nc1cccc(Cl)c1)N(Cc1nc2ccccc2c(=O)[nH]1)C1CCCC1,240
O=C(c1ccc2c(c1)OCO2)N1CCN(C(=O)c2ccco2)CC1,40
O=C(C1CCN(Cc2ccc(F)cc2)CC1)N(CCO)Cc1ccccc1,0
CC(=O)N1CCN=C1SCc1ccccc1Cl,0
CC(C(=O)N1CCOCC1)(c1ccccc1)c1ccccc1,0
c1ccc(Cc2nnc3sc(-c4ccco4)nn23)cc1,0
O=C(O)c1cn(C2CC2)c2cc(N3CCNCC3)c(F)cc2c1=O,0[10 µg/mL]
CC1CCN(C(=O)CSc2nnc(-c3cc4ccccc4cc3O)n2Cc2ccco2)CC1,40
CO[C@H]1C[C@H](O[C@H]2[C@H](C)[C@@H](O[C@@H]3O[C@H](C)C[C@H](N(C)C)[C@H]3OC(C)=O)[C@@H](C)C[C@@]3(CO3)C(=O)[C@H](C)[C@@H](OC(C)=O)[C@@H](C)[C@@H](C)OC(=O)[C@@H]2C)O[C@@H](C)[C@@H]1OC(C)=O,40[10 µg/mL]
COc1ccc(CC(=O)NC2CCN(Cc3nnnn3C(C)(C)C)CC2)cc1OC,240
NC(=O)c1nn(-c2cccc(Cl)c2)c(=O)cc1O,40
Cc1cccc2cc(C(c3nnnn3C(C)(C)C)N3CCN(C(=O)c4ccco4)CC3)c(=O)[nH]c12 (stereo not drawn),40
COc1cccc(C2N(c3cccc(Cl)c3)C(=O)C3CCCN32)c1 (stereo not drawn),40
O=C(Nc1cccc2cccnc12)c1ccc(Br)o1,40
Cc1ccc(S(=O)(=O)N2c3ccccc3OCC2c2ccccc2)cc1 (stereo not drawn),40
CCN(CC)c1ccc(NC(=O)CN2CCN(c3ccc(F)cc3)CC2)cc1,80
C=CCn1c(SCC2=C(C(=O)OCC)C(C)NC(=O)N2)nnc1C1CCCCC1 (stereo not drawn),40
CCOC(=O)c1ccc(NC(=O)CCS(=O)(=O)c2ccc(Br)s2)cc1,40
COc1cccc(C2NC(c3cccc(OC)c3O)C(C)C(=O)C2C)c1O (stereo not drawn),0
Cc1ccc2c(c1)c1c3n2CCN(C(=O)C2CC2)C3CCC1 (stereo not drawn),40
CC[N+](CC)(CC)CCC(O)(c1ccccc1)C1CCCCC1 (stereo not drawn),0[10 µg/mL]
COc1ccc(CN(Cc2ccco2)S(=O)(=O)c2ccc(S(=O)(=O)N3CCCC3)cc2)cc1,0
N#Cc1nc(-c2ccc(F)cc2)oc1NCc1cccc2c1OCO2,0
CC(C)(C)c1ccc(-c2nnc3sc(-c4ccncc4)nn23)cc1,0
Cc1cccc(NC(=O)C2CCN(S(=O)(=O)c3cccc4cccnc34)CC2)c1,0
CNc1oc(C)nc1S(=O)(=O)c1ccccc1,0
CCCC(=O)NC(C)c1nc2ccccc2n1CC (stereo not drawn),0
Cn1c(C(=O)OCC(=O)NCc2cccs2)cc2sccc21,?
O=S(=O)(N1CCCCC1)N1CCNCC1,?
COc1cc(C2NC(=O)NC(C)=C2C(=O)OCC2CCCO2)ccc1O (stereo not drawn),40
CC(C)Oc1cc(O)c2c(=O)c(-c3ccc(O)cc3)coc2c1,0
CCCC(=O)Nc1cccc(NC(=O)CN2CCN(c3ccccc3OC)CC2)c1,0
O=C(Nc1cccc(F)c1)N1CCN(C/C=C/c2ccccc2)CC1,800
CCCn1nc(C(=O)Nc2ccc(S(=O)(=O)Nc3nccs3)cc2)c2ccccc2c1=O,40
Cn1c(-c2c(N)n(C3CCCC3)c3nc4ccccc4nc23)nc2ccccc21,?
O=C1c2oc3ccccc3c(=O)c2C(c2cccnc2)N1Cc1ccco1 (stereo not drawn),0
COc1cc(NC(=O)C2CCCN2C(=O)OCc2ccccc2)cc(OC)c1 (stereo not drawn),0
CCC(Sc1ccccc1C(=O)O)C(=O)O (stereo not drawn),40
CC(=O)N1CCc2c(sc(NC(=O)c3ccc4c(c3)OCCO4)c2C#N)C1,0
O=C(OCCN=C1NS(=O)(=O)c2ccccc21)c1ccncc1,0
CS(=O)(=O)c1ccc2nc(NC(=O)c3ccco3)sc2c1,40
O=C(NCCC1=CCCCC1)c1ccc2c(=O)n3c(nc2c1)CCCCC3,0
COc1cc(NC(C)CCCN)c2ncccc2c1 (stereo not drawn),40[10 µg/mL]
Cn1c(C(=O)N2CCC(C(N)=O)CC2)cc2c(=O)n(C)c3ccccc3c21,40
COCCN(CC(=O)NCC1CCCO1)C(=O)CCC(=O)Nc1cc(C)on1 (stereo not drawn),?
Cc1cc(NC(=O)CSc2c(C)[nH]c3ccccc23)no1,40
Cc1c(Cl)cccc1N1C(=O)c2ccccc2C1=O,0

An excerpt; count on the stated rates, not on these rows.
